# Screening data as filed in PubChem BioAssay.
# M17LAP inhibition: P. falciparum M17LAP inhibitors, primary screen, biochemical, fluorogenic H-Leu-NHMec substrate, 1536-well (AID 1619); recombinant M17LAP, H-Leu-NHMec fluorogenic kinetic assay; higher % means a stronger effect; inhibition, % at 30 µM, or IC50 in µM where a hit was titrated; actives 0.38% (n = 220,000);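 active = compound inhibiting the enzyme by more than half at any dose during confirmatory dose-response retesting; inconclusive = strong single-dose inhibitors picked by rank but not retested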;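 also: plate controls were full reaction with DMSO carrier for no effect and no enzyme background for full effect; strong numbers were not always called active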
# Autophagy mod: modulators of autophagy | calls only at 10 µM (by protocol) | actives 0.98% (n = 190,000) | MEF GFP-LC3 puncta imaging; test concentration mostly 10 µM;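 active = percentage of spot-positive cells more than 3 SD above its plate mean, without a fluorescence outlier flag or 80% toxicity; inconclusive = no clear call, values can overlap the other calls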;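 also: spot-positive cell cutoff set from DMSO-treated cells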
# MT stabilize HCS: microtubule stabilization, imaging screen; HeLa tubulin immunostaining HCS, 24 h; share of cells brighter than vehicle mean+2SD; AID 2205; % tubulin-high responders, % at 10 µM; actives 0.83% (n = 200,000);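 active = plate Z-score above 3 for both tubulin-high and condensed-nucleus cell shares, with cell loss under 80%, at 10 µM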;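 also: anti alpha tubulin signal scored within the nucleus-defined area of each cell; some results filed as inactive read as strong as hits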
# M1AAP inhibition: malaria alanyl aminopeptidase activity blockers – biochemical, fluorogenic H-Leu-NHMec substrate, 1536-well (AID 1445). recombinant M1AAP, H-Leu-NHMec fluorogenic kinetic assay; higher % means a stronger effect. actives 0.42% (n = 220,000). inhibition, % at 30 µM, or IC50 in µM where a hit was titrated;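 active = primary inhibition above the hit cutoff, then over 50% inhibition at one or more dose response concentrations, cut at about 23% in these data, passing the limit was not always enough; inconclusive = conflicting primary data, or primary hits not chosen for dose response; inactive = low primary inhibition, or under 50% at every dose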;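 also: plate controls were DMSO full reaction for no effect and no enzyme background for full effect; strong numbers were not always called active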
# Ins promoter up: MIN6 insulin promoter up-regulation | MIN6 insulin promoter-GFP reporter, high-content imaging; active compounds read high | z-score at 5 µM | actives 0.3% (n = 190,000) | AID 1625;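 active = z-score above 3 at 5 µM with at least 500 cells counted in the well; inconclusive = wells under 500 cells, flagged as cytotoxic or low count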
# Dynein cargo inh: blocks dynein driven cargo transport along microtubules | 3617.4 mouse cells, GR-EGFP nuclear translocation imaging; test concentration mostly 20 µM; stimulated with dexamethasone, 1 µM; active compounds read low | actives 0.47% (n = 220,000) | z-score, hits read low | AID 1381;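 active = plate z-score of nuclear minus cytoplasmic receptor signal below a set negative limit, without overly bright fluorescence or cell loss, cut at about -3.5 in these data, passing the limit was not always enough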;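 also: z-score of nuclear minus cytoplasmic ring GR-EGFP intensity difference per well; some compounds called inactive have numbers as strong as hits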
#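 Also added – dexamethasone, 1.0 µM final · Buffer or medium – tet-free, stripped-serum medium · Schedule – induction 48 h, compound 1 h, agonist 30 min · Detection – formaldehyde fixation, Hoechst nuclear stain, 10x automated fluorescence imaging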
# UTI89 phage lysis: protection from phage-mediated lysis, alamar blue read-out – E. coli UTI89, K1F phage, bacterial capsule biogenesis inhibitors (AID 488966); E. coli UTI89 K1F phage lysis, alamar blue, 2 h; higher % means a stronger effect; one-dose inhibition, % at 100 µM; IC50 in µM for titrated hits; actives 0.02% (n = 340,000);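 active = phage lysis inhibition, versus mean bacterial control, above a set limit; inconclusive = no clear call, values can overlap the other calls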;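 also: capsule biogenesis inhibitors block K1F phage lysis so surviving cells raise fluorescence; higher fluorescence means more inhibition of phage lysis; actives were called in the ten point dose series up to 300 µM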
# ER stress rescue: rescue of cells from ER stress-induced death, primary screen, 384-well, CSM14.1, thapsigargin, ATP luminescence (AID 1222); CSM14.1 thapsigargin-induced death rescue, ATP luminescence; higher % means a stronger effect; one-dose cellular ATP content (survival), % at 20 µM; EC50 in µM for titrated hits; 190,000 tested, under 10 active;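 active = EC50 below 50 µM in the dose-response confirmation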;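 also: death triggered by thapsigargin at about 15 µM added after 2 h compound pretreatment; cell ATP read after overnight thapsigargin exposure of roughly 18 to 22 hours; normalized against plate controls of thapsigargin alone and 5% DMSO vehicle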
# Dynein cargo inh cytoplasmic EGFP: second read-out of Dynein cargo inh, no call of its own (marks repeat the call); z-score; measured here: cytoplasmic GR-EGFP intensity; active compounds read high
# Dynein cargo inh nuclear GR-EGFP: recorded beside Dynein cargo inh, whose call it bears; z-score; measured here: nuclear GR-EGFP intensity;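 lower value marks the stronger effect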
# Dynein cargo inh cell count: second read-out of Dynein cargo inh, no call of its own (marks repeat the call); z-score; measured here: cell count per field
# Ins promoter up cell count: further read-out of Ins promoter up, marked with its call; cell count; measured here: cytotoxicity, nuclei count;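 total cells summed across four imaged fields per well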
# MT stabilize HCS Hoechst-high %: further read-out of MT stabilize HCS, marked with its call; % Hoechst-high responders; measured here: nuclear condensation Hoechst responders;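 share of cells brighter than vehicle mean plus two SD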
# MT stabilize HCS cytotoxicity %: further read-out of MT stabilize HCS, marked with its call; toxicity, %; measured here: cytotoxicity by cell density;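 0% = mean cell density of plate MIN control wells and 100% = no cells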
# Autophagy mod cell loss 18 h: further read-out of Autophagy mod, marked with its call; toxicity, %; measured here: cell loss, nuclei count;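 cell loss after 18 h compound exposure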
# Numbers without * were called inactive; i = inactive; u = inconclusive; x = no result given; + = active, no number; [ ] = dose if it differs, or a comment.
# Letters: A = M17LAP inhibition; B = Autophagy mod; C = Autophagy mod cell loss 18 h; D = MT stabilize HCS; E = MT stabilize HCS Hoechst-high %; F = MT stabilize HCS cytotoxicity %; G = M1AAP inhibition; H = Ins promoter up; I = Ins promoter up cell count; J = Dynein cargo inh; K = Dynein cargo inh cytoplasmic EGFP; L = Dynein cargo inh nuclear GR-EGFP; M = Dynein cargo inh cell count; N = UTI89 phage lysis; O = ER stress rescue
> CCC(C)NC(=O)CCC(=O)Nc1ccc2nc(N3CCOCC3)cc(C)c2c1 (stereo not drawn)
  A = -10%; B = i; C = 0; D = 1.7; E = 1.9; F = 11; G = 3%; H = -0.12; I = 1272; J = 0.2; K = -0.33; L = 0.11; M = -0.85; N = -0.8%; O = -1.2%
> O=C1c2ccccc2CCCC12N=NCC2c1cccc2ccccc12 (stereo not drawn)
  A = -6%; B = i; C = 6; D = 2.0; E = 2.3; F = 7.0; G = 6%; H = 0.54; I = 1199; J = -0.33; K = -0.21; L = 0.37; M = 0.41; N = 0.0%; O = -0.5%
> O=C(NCc1ccco1)C(c1ccccc1)N(C(=O)Cc1cccs1)c1ccccc1F (stereo not drawn)
  A = -8%; B = i; C = 6; D = 3.6; E = 2.4; F = 4.1; G = 12%; H = -0.87; I = 1518; J = 1; K = -0.05; L = -0.089; M = -1.6; N = 1.0%; O = -0.4%
> COC(=O)c1ccc2c(c1)C(C)(C)C(/C=C/c1ccc(OC)c(OC)c1OC)=[N+]2C
  A = -20%; B = +; C = 75*; D = 3.3; E = 1.3; F = 6.0; G = 42%; H = u; I = x; J = -3; K = 2.7; L = -0.96; M = -1.7; N = -0.7%; O = 2.3%
> Cc1nc(SCC(=O)NCCc2ccc(Cl)cc2)nc(C)c1C
  A = -9%; B = i; C = 11; D = 3.5; E = 2.3; F = 7.8; G = 0%; H = -0.18; I = 1545; J = -0.26; K = 0.45; L = 0.79; M = 0.077; N = 0.2%; O = 2.3%
> CCc1c(C(C)O)oc2ccc3c(C)cc(=O)oc3c12 (stereo not drawn)
  A = 0%; B = i; C = -4; D = 2.0; E = 2.3; F = 13; G = 6%; H = -0.73; I = 1549; J = 0.31; K = -0.27; L = 0.87; M = 1.8; N = x; O = 1.9%
> Cc1ccc(C(=O)n2cnnc2N)cc1
  A = 5%; B = i; C = -1; D = 2.5; E = 2.9; F = 8.8; G = 0%; H = -0.16; I = 1411; J = -0.35; K = -0.1; L = -0.78; M = -0.17; N = 0.4%; O = -1.2%
> Cc1ccc(/C=N\NC(=O)C2COc3cc4ccccc4cc3O2)o1 (stereo not drawn)
  A = 0%; B = i; C = 0; D = 2.1; E = 1.1; F = 7.9; G = 13%; H = -0.14; I = 1467; J = -0.04; K = -0.18; L = -0.27; M = 0.85; N = i; O = -4.5%
> CCOC(=O)c1c(C)[nH]c(C(=O)CSc2nnc(-c3cccs3)n2Cc2ccccc2)c1C
  A = -4%; B = i; C = -30; D = 2.6; E = 1.4; F = 7.7; G = -1%; H = -0.86; I = 1469; J = -0.35; K = 0.04; L = 0.62; M = 0.83; N = -1.4%; O = 0.7%
> Cc1cccc(Nc2ccccc2C(=O)OCC(=O)N2CCOCC2)c1C
  A = 4%; B = i; C = 13; D = 1.8; E = 1.6; F = 5.1; G = 3%; H = 0.69; I = 1663; J = -0.46; K = -0.24; L = -0.16; M = 1.8; N = 0.6%; O = -0.5%

# In a second layout: five of the compounds above
Molecule	M17LAP inhibition	Autophagy mod	Autophagy mod cell loss 18 h	MT stabilize HCS	MT stabilize HCS Hoechst-high %	MT stabilize HCS cytotoxicity %	M1AAP inhibition	Ins promoter up	Ins promoter up cell count	Dynein cargo inh	Dynein cargo inh cytoplasmic EGFP	Dynein cargo inh nuclear GR-EGFP	Dynein cargo inh cell count	UTI89 phage lysis	ER stress rescue
CCC(C)NC(=O)CCC(=O)Nc1ccc2nc(N3CCOCC3)cc(C)c2c1 (stereo not drawn)	-10%	i	0	1.7	1.9	11	3%	-0.12	1272	0.2	-0.33	0.11	-0.85	-0.8%	-1.2%
O=C1c2ccccc2CCCC12N=NCC2c1cccc2ccccc12 (stereo not drawn)	-6%	i	6	2.0	2.3	7.0	6%	0.54	1199	-0.33	-0.21	0.37	0.41	0.0%	-0.5%
O=C(NCc1ccco1)C(c1ccccc1)N(C(=O)Cc1cccs1)c1ccccc1F (stereo not drawn)	-8%	i	6	3.6	2.4	4.1	12%	-0.87	1518	1	-0.05	-0.089	-1.6	1.0%	-0.4%
COC(=O)c1ccc2c(c1)C(C)(C)C(/C=C/c1ccc(OC)c(OC)c1OC)=[N+]2C	-20%	+	75*	3.3	1.3	6.0	42%	u	x	-3	2.7	-0.96	-1.7	-0.7%	2.3%
Cc1nc(SCC(=O)NCCc2ccc(Cl)cc2)nc(C)c1C	-9%	i	11	3.5	2.3	7.8	0%	-0.18	1545	-0.26	0.45	0.79	0.077	0.2%	2.3%

# (list continues)
# Letters: A = M17LAP inhibition; B = Autophagy mod; C = Autophagy mod cell loss 18 h; D = MT stabilize HCS; E = MT stabilize HCS Hoechst-high %; F = MT stabilize HCS cytotoxicity %; G = M1AAP inhibition; H = Ins promoter up; I = Ins promoter up cell count; J = Dynein cargo inh; K = Dynein cargo inh cytoplasmic EGFP; L = Dynein cargo inh nuclear GR-EGFP; M = Dynein cargo inh cell count; N = UTI89 phage lysis; O = ER stress rescue
> COc1ccc(-c2cccc(C(=O)Nc3ccc(OC)c(OC)c3)c2)cc1
  A = 6%; B = i; C = -1; D = 1.3; E = 1.8; F = 6.0; G = 2%; H = 0.18; I = 1218; J = -0.36; K = -0.2; L = -0.27; M = 0.39; N = 4.0%; O = -1.1%
> COc1ccc(C(=O)NCC2OCCc3ccccc32)cc1 (stereo not drawn)
  A = 2%; B = i; C = -2; D = 2.3; E = 1.7; F = 1.4; G = 2%; H = 0.59; I = 1616; J = 0.98; K = -0.11; L = -0.12; M = -1.2; N = 4.1%; O = -0.7%
> Cc1nc(-c2cccnc2)sc1C(=O)Nc1ccc(Cl)cc1
  A = -2%; B = i; C = -4; D = 0.5; E = 0.8; F = 3.0; G = 1%; H = -0.12; I = 1664; J = -0.12; K = -0.22; L = -0.4; M = 0.4; N = -0.2%; O = -0.4%
> COc1ccccc1CNC(=O)Cn1nnc(-c2ccncc2)n1
  A = 21%; B = i; C = -18; D = 5.8; E = 3.9; F = 5.9; G = 5%; H = 0.79; I = 1730; J = -0.54; K = -0.29; L = 0.14; M = -0.54; N = -0.6%; O = -2.0%
> CC(=O)Nc1ccc(S(=O)(=O)N2CCN(C(=O)c3cccnc3)CC2)cc1
  A = -10%; B = i; C = 1; D = 3.6; E = 2.3; F = 5.8; G = 3%; H = 1.2; I = 1164; J = -1.3; K = -0.35; L = -0.43; M = 0.47; N = 0.0%; O = 2.3%
> CCOC(=O)Cc1csc(N/N=C/c2ccc(C(F)(F)F)cc2)n1
  A = 0%; B = i; C = 5; D = 1.7; E = 2.5; F = 6.7; G = 0%; H = -0.66; I = 1537; J = -0.24; K = -0.2; L = -0.23; M = 0.71; N = 0.1%[50 µM]; O = -0.5%
> CC(=O)N1CC(=O)N(OCc2ccccc2)C1c1ccc(Cl)cc1Cl (stereo not drawn)
  A = 3%; B = i; C = -1; D = 2.8; E = 1.1; F = 0.8; G = -9%; H = 0.13; I = 1524; J = -0.5; K = -0.27; L = -1.1; M = 0.44; N = 4.8%; O = -2.0%

# The list is partial. The share of hits here may be higher or lower than overall.
